# Vaccinia inh = Vaccinia orthopox stage-specific inhibition; AID 1053133; Vaccinia-infected cells, mCherry/Venus stage reporter fluorescence; stronger effect = lower value; some inactives read as strong as hits; activity change (mCherry), % (test concentration not listed); 0.01% of 89,000 active;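 active = mCherry past -33% and 40 or more points under the early reporter, replicates agreeing; inconclusive = past -33% without that gap or agreement; tested in A549 cells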;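 also: scaled between vehicle wells and reference inhibitor wells; 23 nL library stock went into each well; one replicate is shown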
# Vaccinia inh Venus = also measured in Vaccinia inh; calls as there; activity change (Venus), %; measured here: Venus reporter, other viral stage;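 negative = less Venus signal; first of two replicates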
# The depositor's hits bear a star; ? = inconclusive; · = no result given; & = joins results of further samples.
SMILES,Vaccinia inh,Vaccinia inh Venus
COc1ccc2c3c([nH]c2c1)[C@@H](CO)N(C(=O)Nc1ccccc1F)CC31CN(C(=O)c2ccccc2F)C1,?,·
C[C@H](CO)N1C[C@H](C)[C@@H](CN(C)C(=O)C2CCCCC2)OCCCC[C@H](C)Oc2ccc(NS(=O)(=O)c3cccs3)cc2C1=O,-30,-24
CC(C)NC(=O)Nc1ccc2c(c1)C(=O)N([C@H](C)CO)C[C@@H](C)[C@H](CN(C)S(=O)(=O)c1cccs1)OCCCC[C@@H](C)O2,6,-1
C[C@H](CO)N1C[C@H](C)[C@H](CN(C)Cc2ccc(C(F)(F)F)cc2)OCCCC[C@H](C)Oc2ccc(NS(=O)(=O)c3ccccc3)cc2C1=O,?,·
COc1ccccc1-c1ccc2c(c1)O[C@H](CN(C)C(C)=O)[C@@H](C)CN([C@H](C)CO)S2(=O)=O,17,6
Cc1ccc(S(=O)(=O)Nc2ccc3c(c2)C(=O)N([C@H](C)CO)C[C@H](C)[C@@H](CN(C)CC2CC2)OCCCC[C@H](C)O3)cc1,-14,-9
O=C(Nc1cc(F)ccc1F)N1CC(=O)N2[C@H](CO)[C@@H](c3ccc(-c4cccnc4)cc3)[C@H]2C1,?,·
C[C@@H]1CCCCO[C@H](CN(C)Cc2ccncc2)[C@H](C)CN([C@@H](C)CO)C(=O)c2cc(NC(=O)Cc3ccccc3)ccc2O1,-6,-4
CCC(=O)N1CC2(C1)[C@H](c1ccccc1)[C@H](CO)N2Cc1ccccc1OC,10,11
O=C1CN(S(=O)(=O)c2ccccc2)C[C@@H]2[C@H](c3ccc(C#Cc4ccccc4)cc3)[C@@H](CO)N12,-13,-13
CNC[C@@H]1Oc2cc(C#Cc3ccccc3F)ccc2S(=O)(=O)N([C@H](C)CO)C[C@H]1C,?,·
COc1ccc(CN(C)C[C@@H]2Oc3c(NC(=O)c4nc5ccccc5s4)cccc3C(=O)N([C@H](C)CO)C[C@H]2C)cc1,0,-7
O=C(N[C@H]1CC[C@@H](CCn2cc(C3(O)CCCC3)nn2)O[C@H]1CO)C1CCOCC1,-3,8
CC(C)NC(=O)N(C)C[C@@H]1Oc2c(NC(=O)Nc3ccccc3)cccc2C(=O)N([C@H](C)CO)C[C@@H]1C,-5,-5
COCCNC(=O)c1cc2c(c(-c3cccc(-c4cccc(F)c4)c3)n1)[C@@H](CCO)N(S(=O)C(C)(C)C)C2 (some centres undefined),20,23
Cc1ccccc1S(=O)(=O)N1C[C@H](O)COC[C@H]2O[C@H](CC(=O)N3CCOCC3)CC[C@@H]21,11,5
COc1ccc(-c2ccc3n(c2=O)C[C@@H]2[C@@H](CO)[C@H](C(=O)N4CCOCC4)[C@H]3N2C)cc1,5,4
C[C@@H]1CN([C@H](C)CO)S(=O)(=O)c2ccc(C#CC3CC3)cc2O[C@H]1CN(C)CC1CCOCC1,-24,-19
COc1ccccc1C(=O)Nc1ccc2c(c1)C(=O)N(C)[C@H]1CC[C@H](CC(=O)NCc3ccc(Cl)c(Cl)c3)O[C@H]1CO2,-32,-18
C[C@@H]1CN([C@H](C)CO)C(=O)Cc2cc(NS(=O)(=O)c3cn(C)cn3)ccc2O[C@@H]1CN(C)C(=O)Nc1ccc2c(c1)OCO2,7,1
CCC(=O)N1CC(=O)N2[C@H](CO)[C@@H](c3ccc(-c4ccc(C(=O)N(C)C)cc4)cc3)[C@@H]2C1,16,8
C[C@H](CO)N1C[C@H](C)[C@H](CN(C)S(=O)(=O)c2ccc(F)cc2)Oc2ncc(C#Cc3cccc(F)c3)cc2C1=O,-27,-22
CN(C)CCCNC(=O)C[C@@H]1CC[C@@H]2[C@H](COc3ccc(NC(=O)NC4CCCC4)cc3C(=O)N2C)O1,8,7
CCNC(=O)C[C@@H]1CC[C@@H]2[C@@H](COc3ccc(NC(=O)c4ccc(C(F)(F)F)cc4)cc3C(=O)N2C)O1,-14,-15
N#C[C@@H]1[C@H](c2ccc(C#CC3CCCCC3)cc2)[C@@H](CO)N1C(=O)Nc1ccc(F)cc1,?,·
Cc1noc(C)c1NC(=O)N1C[C@@H](O)COC[C@H]2O[C@H](CC(=O)NCC3CC3)CC[C@@H]21,-2,7
O=C(C[C@H]1C=C[C@H](NC(=O)c2ccc3c(c2)OCO3)[C@@H](CO)O1)NC1Cc2ccccc2C1,-8,-5
CC(=O)N(C)C[C@H]1Oc2cc(C#Cc3cccc(F)c3)ccc2S(=O)(=O)N([C@@H](C)CO)C[C@@H]1C,?,·
O=C(Nc1ccccc1)N1C[C@H]2[C@@H](c3ccccc31)[C@H](CO)N2C(=O)c1ccccn1,4,5
C#CCNC(=O)C1=C[C@H](c2ccc(C(F)(F)F)cc2)[C@@H](CCCO)[C@H](OCC)O1,0,3
COc1ccc(S(=O)(=O)Nc2ccc3c(c2)CC(=O)N([C@H](C)CO)C[C@@H](C)[C@H](CN(C)Cc2ccccc2)O3)cc1,-16,-12
CCCNC(=O)N[C@@H]1CC[C@@H](CC(=O)NCCc2ccccc2)O[C@H]1CO,3,12
CC(C)NC(=O)Nc1ccc2c(c1)C(=O)N([C@@H](C)CO)C[C@H](C)[C@@H](CN(C)C(=O)Nc1cccc3ccccc13)O2,5,7
C[C@H]1CN([C@@H](C)CO)C(=O)c2c(c3ccccc3n2C)-c2ccccc2CO[C@@H]1CN(C)C(=O)[C@@H]1CCCN1C,0,1
O=C(Cc1ccccn1)N1CC(=O)N2[C@@H](CO)[C@@H](c3ccc(C#CC4CCCC4)cc3)[C@@H]2C1,-10,-7
C[C@@H]1CN([C@H](C)CO)C(=O)c2cccc(NC(=O)c3nc4ccccc4s3)c2O[C@H]1CN(C)Cc1ccncc1,-34,-26
Cc1ccc(NC(=O)Nc2ccc3c(c2)C(=O)N(C)[C@H]2CC[C@H](CC(=O)NCC(F)(F)F)O[C@@H]2CO3)cc1,11,12
C[C@H](CO)N1C[C@H](C)[C@H](CN(C)C(=O)Nc2ccccc2)Oc2ccc(NC(=O)Nc3ccccc3)cc2CC1=O,8,11
O=C(Nc1ccccc1Cl)N1C[C@@H]2[C@H](c3ccccc31)[C@H](CO)N2C(=O)c1cccnc1,10,9
COC(=O)C[C@H]1C[C@H]2c3cc(NC(=O)NC4CCCC4)ccc3O[C@H]2[C@@H](CO)O1,12,11
C[C@H](CO)N1C[C@H](C)[C@H](CN(C)Cc2cccc(F)c2)Oc2ncc(C3=CCCC3)cc2C1=O,-16&-2,-16&-11
COc1ccccc1C#Cc1cnc2c(c1)C(=O)N([C@@H](C)CO)C[C@@H](C)[C@@H](CN(C)C(=O)CC1CC1)O2,-8,-4
COc1ccc(NC(=O)N(C)C[C@@H]2Oc3cc(C#CCC(C)C)ccc3S(=O)(=O)N([C@H](C)CO)C[C@@H]2C)cc1,?,·
COCC(=O)N(C[C@H]1N[C@H](CO)[C@@H]1c1ccc(C2=CCCCC2)cc1)C(C)C,-5,-6
COc1ccc(S(=O)(=O)N(C)C[C@H]2OCc3cnnn3CCCC(=O)N([C@@H](C)CO)C[C@H]2C)cc1,-11,-7
C[C@H](CO)N1C[C@H](C)[C@@H](CN(C)C(=O)Nc2ccc(C(F)(F)F)cc2)OCc2cnnn2CCCC1=O,12,12
CCO[C@@H]1OC(C(=O)N2CCCC2)=C[C@H](C2CCCCC2)[C@H]1CCCO,0,-1
CCC(=O)N[C@H]1C=C[C@H](CC(=O)OC)O[C@@H]1CO,2,10
C[C@H]1CN([C@@H](C)CO)C(=O)CCCn2cc(nn2)CO[C@@H]1CN(C)Cc1ccc(Cl)c(Cl)c1,-12,-3
N#Cc1cccc(-c2ccc([C@H]3[C@@H](CO)N4CCCCN(C(=O)Cc5ccncc5)C[C@@H]34)cc2)c1,20,10
C[C@@H]1CCCCO[C@@H](CN(C)S(=O)(=O)c2ccccc2)[C@H](C)CN([C@@H](C)CO)C(=O)c2cc(NC(=O)Nc3ccc(C(F)(F)F)cc3)ccc2O1,-15,-10
O=C(C[C@@H]1C[C@H]2c3cc(NC(=O)NC4CCCCC4)ccc3O[C@H]2[C@H](CO)O1)NC1CCCC1,22,10
O=C(NCC1CCCCC1)[C@@H]1[C@@H](CO)[C@@H]2Cn3c(ccc(C4=CCCC4)c3=O)[C@H]1N2,7,-1
CCC(=O)N(C)C[C@H]1Oc2cc(C#Cc3ccncc3)ccc2S(=O)(=O)N([C@@H](C)CO)C[C@@H]1C,?,·
COc1ccc2c3c([nH]c2c1)[C@H](CO)N(Cc1ccncc1)CC31CCN(C(=O)Cc2ccncc2)CC1,22,20
CCCN1[C@@H]2c3cccc(=O)n3C[C@H]1[C@H](CO)[C@H]2C(=O)N(C)C,2,5
C[C@@H]1CN([C@H](C)CO)C(=O)Cc2cc(NC(=O)C3CC3)ccc2O[C@@H]1CN(C)Cc1ccccc1,13,8
C[C@H]1CN([C@@H](C)CO)C(=O)Cc2cc(NC(=O)Nc3ccc(C(F)(F)F)cc3)ccc2O[C@@H]1CN(C)Cc1ccccc1,?,·
C[C@@H]1CN([C@@H](C)CO)C(=O)CCCn2cc(nn2)CO[C@H]1CN(C)S(=O)(=O)c1ccccc1C#N,12,2
O=C(C[C@H]1CC[C@H]2[C@@H](COC[C@H](O)CN2Cc2nccs2)O1)NCc1ccc(Oc2ccccc2)cc1,?,·

# Compounds from the list above that contain an aryl methoxy group:
SMILES,Vaccinia inh,Vaccinia inh Venus
COc1ccc2c3c([nH]c2c1)[C@@H](CO)N(C(=O)Nc1ccccc1F)CC31CN(C(=O)c2ccccc2F)C1,?,·
COc1ccccc1-c1ccc2c(c1)O[C@H](CN(C)C(C)=O)[C@@H](C)CN([C@H](C)CO)S2(=O)=O,17,6
CCC(=O)N1CC2(C1)[C@H](c1ccccc1)[C@H](CO)N2Cc1ccccc1OC,10,11
COc1ccc(CN(C)C[C@@H]2Oc3c(NC(=O)c4nc5ccccc5s4)cccc3C(=O)N([C@H](C)CO)C[C@H]2C)cc1,0,-7
COc1ccc(-c2ccc3n(c2=O)C[C@@H]2[C@@H](CO)[C@H](C(=O)N4CCOCC4)[C@H]3N2C)cc1,5,4
COc1ccccc1C(=O)Nc1ccc2c(c1)C(=O)N(C)[C@H]1CC[C@H](CC(=O)NCc3ccc(Cl)c(Cl)c3)O[C@H]1CO2,-32,-18
COc1ccc(S(=O)(=O)Nc2ccc3c(c2)CC(=O)N([C@H](C)CO)C[C@@H](C)[C@H](CN(C)Cc2ccccc2)O3)cc1,-16,-12
COc1ccccc1C#Cc1cnc2c(c1)C(=O)N([C@@H](C)CO)C[C@@H](C)[C@@H](CN(C)C(=O)CC1CC1)O2,-8,-4
COc1ccc(NC(=O)N(C)C[C@@H]2Oc3cc(C#CCC(C)C)ccc3S(=O)(=O)N([C@H](C)CO)C[C@@H]2C)cc1,?,·
COc1ccc(S(=O)(=O)N(C)C[C@H]2OCc3cnnn3CCCC(=O)N([C@@H](C)CO)C[C@H]2C)cc1,-11,-7
COc1ccc2c3c([nH]c2c1)[C@H](CO)N(Cc1ccncc1)CC31CCN(C(=O)Cc2ccncc2)CC1,22,20

# (next part)
SMILES,Vaccinia inh,Vaccinia inh Venus
CC(C)NC(=O)N(C)C[C@@H]1Oc2ccc(NC(=O)CCC(F)(F)F)cc2C(=O)N([C@@H](C)CO)C[C@@H]1C,14,4
C[C@H]1CN([C@@H](C)CO)C(=O)CCCn2cc(nn2)CO[C@H]1CN(C)C(=O)Nc1ccc(N2CCN(C)CC2)cc1,0,11
COc1ccc(CN(C)C[C@@H]2Oc3c(NS(=O)(=O)c4ccc(OC)cc4)cccc3C(=O)N([C@@H](C)CO)C[C@@H]2C)cc1,8,5
O=C(C1CCC1)N1C[C@H]2[C@@H](c3ccccc31)[C@@H](CO)N2C(=O)Nc1cccc(F)c1,-9,10
O=C(Cc1cccnc1)N1CCCCN2[C@H](C1)[C@H](c1ccc(/C=C/c3ccccc3)cc1)[C@@H]2CO,?,·
CC(=O)N(C)C[C@@H]1Oc2cc(C3=CCCC3)ccc2S(=O)(=O)N([C@H](C)CO)C[C@H]1C,3,-6
O=C(C[C@H]1CC[C@H](NC(=O)Nc2ccc(F)cc2)[C@@H](CO)O1)NCCN1CCCC1,11,10
C[C@H](CO)N1C[C@H](C)[C@H](CN(C)C(=O)Nc2ccccc2)Oc2ccc(NS(=O)(=O)c3cn(C)cn3)cc2CC1=O,-10,-6
O=C(NCC[C@@H]1CC[C@H](NC(=O)C2CC2)[C@H](CO)O1)c1ccc(F)cc1,4,6
O=C(O)C[C@H]1C[C@H]2c3cc(NC(=O)c4ccc5c(c4)OCO5)ccc3O[C@H]2[C@H](CO)O1,-3,2
CO[C@H]1CN(C)C(=O)c2cc(NC(=O)C3CC3)ccc2OC[C@@H](C)N(Cc2ccc(F)cc2)C[C@H]1C,-7,2
C[C@@H]1CN([C@@H](C)CO)C(=O)CCCn2cc(nn2)CO[C@@H]1CN(C)C(=O)Nc1cccc(Oc2ccccn2)c1,13,5
CN(C)C(=O)c1cccc(-c2ccc3c(c2)[C@@H]2[C@@H](CCN2C(=O)C2CCCC2)[C@@H](CO)N3)c1,?,·
C[C@H](CO)N1C[C@H](C)[C@@H](CN(C)Cc2ccc(Cl)c(Cl)c2)OCCCC[C@H](C)Oc2ccc(NC(=O)NC3CCCCC3)cc2C1=O,-2,0
CNC(=O)C[C@@H]1CC[C@H]2[C@@H](COc3ccc(NC(=O)c4ccc(OC)cc4)cc3C(=O)N2C)O1,9,4
C[C@H](CO)N1C[C@H](C)[C@H](CN(C)C(=O)Nc2ccc(F)cc2)OCCCC[C@H](C)Oc2ccc(NS(=O)(=O)c3ccc(Cl)cc3)cc2C1=O,-27,-9
COc1ccc2c3c(n(C)c2c1)[C@@H](CO)N(Cc1cc(F)ccc1F)CC31CCN(C(=O)C2CC2)CC1,9,15
C[C@@H]1CCCCO[C@H](CN(C)C(=O)Nc2cccc3ccccc23)[C@@H](C)CN([C@H](C)CO)C(=O)c2cc(NS(=O)(=O)c3ccc(Cl)cc3)ccc2O1,21,25
OC[C@H]1[C@H](c2ccc(Br)cc2)[C@@H]2CN(Cc3cncnc3)CCCCN12,27,-4
C[C@@H]1CN([C@H](C)CO)C(=O)c2cccc(NS(=O)(=O)c3ccc(Cl)cc3)c2O[C@H]1CN(C)Cc1ccc(C(=O)Nc2ccccc2N)cc1,-14,-12

# This is a subset. The share of hits here may be higher or lower than overall.
